PKD1 inh = blocks activity of human protein kinase D1. hit rate 0.056% among 200,000. inhibition, %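 (about 10 µM by stock and volumes)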. PKD1 kinase fluorescence polarization assay. Q15139;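 active means inhibition of 50% or more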;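 further: controls were vehicle for no effect and a reference inhibitor for full effect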
Target sequence (Q15139 whole entry, looked up): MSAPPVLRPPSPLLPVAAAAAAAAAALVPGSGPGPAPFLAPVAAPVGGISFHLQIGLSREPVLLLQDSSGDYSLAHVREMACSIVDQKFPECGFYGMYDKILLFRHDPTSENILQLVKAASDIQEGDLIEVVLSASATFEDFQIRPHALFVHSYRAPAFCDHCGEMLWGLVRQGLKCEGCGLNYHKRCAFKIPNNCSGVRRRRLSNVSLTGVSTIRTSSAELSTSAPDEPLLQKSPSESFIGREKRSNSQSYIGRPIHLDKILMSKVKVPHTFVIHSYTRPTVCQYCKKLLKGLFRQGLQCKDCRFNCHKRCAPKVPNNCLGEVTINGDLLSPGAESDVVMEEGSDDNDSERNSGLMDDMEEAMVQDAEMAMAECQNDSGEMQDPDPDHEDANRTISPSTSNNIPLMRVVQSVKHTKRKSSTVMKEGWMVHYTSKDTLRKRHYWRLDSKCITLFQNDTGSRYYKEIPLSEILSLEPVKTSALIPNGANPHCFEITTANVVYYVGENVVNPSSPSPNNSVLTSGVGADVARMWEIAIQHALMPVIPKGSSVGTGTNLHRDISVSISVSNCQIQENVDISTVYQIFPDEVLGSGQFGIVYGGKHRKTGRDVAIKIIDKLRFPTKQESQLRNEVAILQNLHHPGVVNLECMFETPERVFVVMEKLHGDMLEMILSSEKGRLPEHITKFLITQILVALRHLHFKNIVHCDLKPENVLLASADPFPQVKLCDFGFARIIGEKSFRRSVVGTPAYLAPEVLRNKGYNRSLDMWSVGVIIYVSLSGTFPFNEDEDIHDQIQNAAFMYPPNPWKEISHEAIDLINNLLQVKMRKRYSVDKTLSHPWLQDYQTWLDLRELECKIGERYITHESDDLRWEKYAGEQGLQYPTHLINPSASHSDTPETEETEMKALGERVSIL
HSV replic up = HSV replication enhancement; HSV replication augmentation in cells, fold increase; maximum fold increase; hit rate 0.005% among 220,000;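 active means peak rise of 1.5-fold or more in the series; tested in PC3 cells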;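 further: first round at 10 µM; read as green reporter fluorescence; hits show the peak of a series up to 25 µM; 1 = signal of infected wells without compound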
INS promoter inh = TRM-6 insulin promoter activity inhibition. hit rate 0.9% among 130,000. inhibition, % at 2 µM. TRM-6 cells (human fetal islet line), insulin promoter-eGFP reporter, imaging; reporter expression induced with tamoxifen;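 active means inhibition above the mean plus 3 SD, with well images judged a real hit on visual review, cut at about 60% in these data, passing the limit was not always enough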
RGS16-Gao = regulators of human RGS16-Galphao interaction; bead-based flow cytometry RGS16-Galphao binding, fluorescence; actives lie on both sides; binding response (% of control), % at 10 µM; hit rate 0.38% among 220,000;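 active means below 25% or above 175%, edge rows of some plates excepted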;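 further: Galphao activated by GDP with aluminum fluoride before binding; 100% = wells without compound and 0% = beads without RGS; some results beyond the cut were filed as inactive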
GALR2 agonist = GALR2 (human) receptor agonism | O43603 | GALR2-expressing cells, agonist activation read-out | activation, %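 (tested at 5 µM)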 | hit rate 0.48% among 140,000;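 active means above mean plus 3 SD of all compounds, about 5% in these data, not always enough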;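 further: 0% = vehicle buffer wells and 100% = reference agonist at full effect; tested in CHO reporter cells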
INS promoter inh cell count = further read-out of INS promoter inh, marked with its call; normalized cell count, %; measured here: cell count, toxicity; reference of the scale not given here;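 cells exposed to compound for 48 h; stained nuclei by imaging scaled within each plate; lower means fewer cells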
HSV replic up primary fold = second read-out of HSV replic up, no call of its own (marks repeat the call); fold increase; compound at 10 µM; measured here: primary screen fold increase 10 uM; tested in PC3 cells;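 GFP signal in the first replicate; 1 = infected wells without compound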
The depositor's hits bear a star; i = inactive; / = not tested or not shown; & = joins results of further samples.

SMILES	PKD1 inh	HSV replic up	HSV replic up primary fold	INS promoter inh	INS promoter inh cell count	RGS16-Gao	GALR2 agonist
CC1CC(=O)Nc2ccccc2N1C(=O)Nc1ccccc1 (configuration not stated)	/	i	1.05	/	/	98.9	/
CCS(=O)(=O)N1CCN(c2ccc([N+](=O)[O-])c(NCC3CCCO3)c2)CC1 (configuration not stated)	-0.2	i	1.05	/	/	104.3	/
CC(=O)Nc1ccc(/C(C)=N/Nc2nc(Nc3ccccc3)nc(N3CCOCC3)n2)cc1	-7.2	i	0.71	/	/	106.0	/
Cc1n[nH]c(C)c1S(=O)(=O)N1CCCC(C(=O)N2CCN(c3ccc(Cl)cc3)CC2)C1 (configuration not stated)	-3.7	i	1.04	/	/	101.3	-2.2
Nc1ncc(-c2ccccc2)c(-c2ccc(OCc3ccccc3)cc2O)n1	/	i	0.87	/	/	108.0	/
Cc1cccc(C)c1NC(=O)CCCN1CC(C)OC(C)C1 (configuration not stated)	-4.3	i	1.03	-3.3	76.9	94.7	-1.0
O=C(c1cnn2c(C(F)F)cc(-c3ccccc3)nc12)N1CCc2ccccc2C1	-1.9	i	0.9	35.7	132.1	103.1	/
CCN(CC)c1ccc(C(=O)c2cnc(/N=C/N(C)C)s2)cc1	-5.0	i	1.01	11.1	81.0	105.8	/
Cc1cc(NC(=O)CSc2ccc(F)cc2)no1	-0.3	i	1.03	27.3	156.6	100.3	/
O=C(c1ccc(=O)oc1)N1CCN(C(c2ccccc2)c2ccccc2)CC1	4.9	i	1	/	/	95.6	-1.4
Cc1ccc(S(=O)(=O)NCC2CCC(C(=O)NCc3ccco3)CC2)cc1 (configuration not stated)	-11.1	i	1.08	0.0	117.1	97.7	-3.3
O=S(=O)(NC1CCN(Cc2ccccc2)CC1)c1cccc2cccnc12	1.5	i	1.17	41.7	96.3	112.7	0.1
COc1cc(/C=N/NC(=O)c2cccc(S(=O)(=O)N3CCCCC3)c2)cc(Br)c1O	-8.8	i	0.97	/	/	100.7	/
CNC(=O)CSc1nc(-c2ccccc2)c(-c2ccccc2)[nH]1	-9.1	i	0.78	0.0	156.0	92.1	-1.6
CCOC(=O)c1cc(C#N)c(SCC(=O)Nc2ccc(C(C)=O)cc2)[nH]c1=O	/	i	1.08	/	/	101.1	/
Cc1nn(C)c(C)c1S(=O)(=O)N1CCC(C(=O)NC(C)c2ccccc2)CC1 (configuration not stated)	-12.0	i	0.85	/	/	100.7	-2.2
C[C@H](NC(=O)OC(C)(C)C)C(=O)NCC1CCC(C(=O)O)CC1 (some centres not stated)	3.2	i	0.93	-19.1	105.7	87.6	-1.8
COc1cc(C=O)ccc1OCCCCOc1ccccc1[N+](=O)[O-]	-6.0	i	0.96	7.9	72.3	94.5	-0.1
CCC(C)NC(=O)c1c(N)n(/N=C/c2ccccn2)c2nc3ccccc3nc12 (configuration not stated)	-2.3	i	0.7	/	/	103.1	1.1
CN(C)c1nc(Oc2ccc(=O)[nH]n2)nc(N2CCOCC2)n1	7.2	i	1.04	-60.5	65.7	101.0	-0.9
COc1cccc(C(=O)N2CCN(S(=O)(=O)Cc3ccccc3)CC2)c1	-13.7	i	0.93	/	/	96.2	-2.1
Cc1c(Cl)ccc2c1NC(=O)[C@]21N[C@@H](Cc2ccccc2)[C@H]2C(=O)N(c3ccc(F)cc3)C(=O)[C@H]21	-14.1	i	0.85	-5.6	97.5	99.3	2.5
O=C(COC(=O)CCc1c[nH]c2ccccc12)NCc1ccc2c(c1)OCO2	-1.6	i	1.01	/	/	97.7	/
CCOC(=O)c1[nH]c2cc3c(cc2c1NC(=O)CN1CCCC1)OCO3	/	i	1.11	/	/	102.3	/

A section from the list above, for reference:
SMILES	PKD1 inh	HSV replic up	HSV replic up primary fold	INS promoter inh	INS promoter inh cell count	RGS16-Gao	GALR2 agonist
CC1CC(=O)Nc2ccccc2N1C(=O)Nc1ccccc1 (configuration not stated)	/	i	1.05	/	/	98.9	/
CCS(=O)(=O)N1CCN(c2ccc([N+](=O)[O-])c(NCC3CCCO3)c2)CC1 (configuration not stated)	-0.2	i	1.05	/	/	104.3	/
CC(=O)Nc1ccc(/C(C)=N/Nc2nc(Nc3ccccc3)nc(N3CCOCC3)n2)cc1	-7.2	i	0.71	/	/	106.0	/
Cc1n[nH]c(C)c1S(=O)(=O)N1CCCC(C(=O)N2CCN(c3ccc(Cl)cc3)CC2)C1 (configuration not stated)	-3.7	i	1.04	/	/	101.3	-2.2
Nc1ncc(-c2ccccc2)c(-c2ccc(OCc3ccccc3)cc2O)n1	/	i	0.87	/	/	108.0	/
Cc1cccc(C)c1NC(=O)CCCN1CC(C)OC(C)C1 (configuration not stated)	-4.3	i	1.03	-3.3	76.9	94.7	-1.0
O=C(c1cnn2c(C(F)F)cc(-c3ccccc3)nc12)N1CCc2ccccc2C1	-1.9	i	0.9	35.7	132.1	103.1	/
CCN(CC)c1ccc(C(=O)c2cnc(/N=C/N(C)C)s2)cc1	-5.0	i	1.01	11.1	81.0	105.8	/
Cc1cc(NC(=O)CSc2ccc(F)cc2)no1	-0.3	i	1.03	27.3	156.6	100.3	/
O=C(c1ccc(=O)oc1)N1CCN(C(c2ccccc2)c2ccccc2)CC1	4.9	i	1	/	/	95.6	-1.4
Cc1ccc(S(=O)(=O)NCC2CCC(C(=O)NCc3ccco3)CC2)cc1 (configuration not stated)	-11.1	i	1.08	0.0	117.1	97.7	-3.3
O=S(=O)(NC1CCN(Cc2ccccc2)CC1)c1cccc2cccnc12	1.5	i	1.17	41.7	96.3	112.7	0.1
COc1cc(/C=N/NC(=O)c2cccc(S(=O)(=O)N3CCCCC3)c2)cc(Br)c1O	-8.8	i	0.97	/	/	100.7	/
CNC(=O)CSc1nc(-c2ccccc2)c(-c2ccccc2)[nH]1	-9.1	i	0.78	0.0	156.0	92.1	-1.6
CCOC(=O)c1cc(C#N)c(SCC(=O)Nc2ccc(C(C)=O)cc2)[nH]c1=O	/	i	1.08	/	/	101.1	/
Cc1nn(C)c(C)c1S(=O)(=O)N1CCC(C(=O)NC(C)c2ccccc2)CC1 (configuration not stated)	-12.0	i	0.85	/	/	100.7	-2.2
C[C@H](NC(=O)OC(C)(C)C)C(=O)NCC1CCC(C(=O)O)CC1 (some centres not stated)	3.2	i	0.93	-19.1	105.7	87.6	-1.8
COc1cc(C=O)ccc1OCCCCOc1ccccc1[N+](=O)[O-]	-6.0	i	0.96	7.9	72.3	94.5	-0.1
CCC(C)NC(=O)c1c(N)n(/N=C/c2ccccn2)c2nc3ccccc3nc12 (configuration not stated)	-2.3	i	0.7	/	/	103.1	1.1

The list continues:
SMILES	PKD1 inh	HSV replic up	HSV replic up primary fold	INS promoter inh	INS promoter inh cell count	RGS16-Gao	GALR2 agonist
O=C(Cn1cnc2c(cnn2-c2ccccc2)c1=O)NCc1ccccc1	1.4	i	0.89	/	/	101.4	-0.8
CCOC(=O)/C=c1\s/c(=C(\C#N)C(N)=O)n(-c2ccccc2)c1=O	/	i	0.9	/	/	97.7	/
O=C(CSc1nc2ccccc2[nH]1)NCc1ccc2c(c1)OCO2	-5.7	i	1.08	/	/	99.6	-0.5
CCOc1ccc(Br)cc1S(=O)(=O)Nc1ccc(C(=O)Nc2ccc(C)cc2)cc1	-3.4	i	0.76	3.3	79.3	114.7	-1.8
O=[N+]([O-])c1cc(Cl)ccc1Sc1ccccn1	/	i	1.11	/	/	99.3	/
O=C(Oc1ccc2c(c1)OCC2=O)c1ccccc1	0.3	i	0.77	-6.2	91.0	100.9	-1.4
Cc1occc1-c1nnc(SCC(=O)NCc2cccs2)n1CC1CCCO1 (configuration not stated)	24.1	i	1.02	/	/	99.9	0.5
CCc1nnc(NC(=O)Cc2cccs2)s1	0.8	i	1	-8.3	102.5	99.2	/
O=C(CSc1nnc(-c2ccncc2)n1Cc1ccco1)Nc1ccccc1F	/	i	0.97	/	/	102.7	/
NS(=O)(=O)c1ccc(CCNC(=O)c2ccccc2[N+](=O)[O-])cc1	7.5	i	1.13	-35.4	84.9	126.3	-1.0
Cc1ccn2c(=O)nc(SCc3cccc(C(F)(F)F)c3)nc2c1	-7.2	i	0.91	41.7	183.9	103.9	/
CCOc1cccc(NC(=O)C2CCCN(S(=O)(=O)c3ccc(-n4cnnn4)cc3)C2)c1 (configuration not stated)	3.6	i	1	-66.7	140.4	101.9	0.2
OC1(CN2CCOCC2)C2CN3CCN(C2)CC1(c1ccccc1)C3 (configuration not stated)	-3.4	i	1.09	-21.4	83.6	92.3	-1.1
O=C(NCc1cccnc1)c1c(O)c2cccc3c2n(c1=O)CCC3	-2.2	i	1.05	/	/	65.0	/
CN1C2CCC1/C(=C\c1ccc(F)cc1)C(=O)/C2=C/c1ccc(F)cc1	-12.5	i	0.92	-92.9	34.9	106.4	-1.2
COC(=O)NNC(=O)COc1cc(C)c(Br)cc1C(C)C	14.2	i	0.88	-16.7	156.9	107.4	-0.9
Cc1ccc(Oc2ccc(Cl)cc2N)cc1	3.4	i	0.94	/	/	98.1	/
CCOc1ccc(/C=N/NC(=O)Cn2ccnc2C)cc1	/	i	1.02	/	/	104.8	/
O=C(NCc1ccc2c(c1)OCO2)c1ccc(CS(=O)(=O)Cc2cccc(Cl)c2)o1	-9.1	i	0.93	28.9	118.1	97.0	0.2
CCOC(=O)c1cc(CC)sc1/N=C/c1c(O)ccc2ccccc12	-0.6	i	1.06	36.7	84.1	52.1	-1.6
CC(=O)[C@H]1CC[C@H]2[C@@H]3CCC4=CC(=O)CC[C@]4(C)[C@H]3CC[C@]12C	-10.6	i	0.82	13.6	109.0	84.8&93.4	1.2
CC(=O)Nc1ccccc1NC(=O)c1ccc(C)cc1C	-8.1	i	0.99	/	/	101.7	/
CCC(=O)Nc1ccc2nc(C3CC3)n(Cc3ccccc3)c(=O)c2c1	-3.6	/	/	18.2	94.7	107.1	-1.6
O=C(Cc1ccc(Cl)c(Cl)c1)Nc1ccccc1N1CCOCC1	-2.1	i	1	-80.0	145.8	101.0	/
COC(=O)c1ccc(N2CCN(C(=O)c3ccccc3)CC2)c(NC(C)=O)c1	-6.1	i	0.97	/	/	105.8	/
COc1cc(NC(=O)c2ccc([N+](=O)[O-])o2)ccc1NC(=O)c1cccs1	4.0	i	0.57	-209.1	66.8	110.2	/
CC(C)CNC(=O)CN(C1CCCCC1)S(C)(=O)=O	-14.6	i	0.73	-387.5	41.2	95.8	-2.3
CN1C2C=C(N(CCc3ccccc3)C(=O)c3ccc(Cl)cc3)CC1CC2 (configuration not stated)	-6.8	i	0.98	/	/	104.9	/
CC1C(=O)CCN(C(C)C)C1C (configuration not stated)	-0.6	i	0.93	10.8	110.2	103.8	-0.6
COc1cccc(-n2cc3c(=O)n(C)c(=O)n(C)c3c2)c1	-10.7	i	0.8	-53.9	213.9	109.5	0.1
Cc1ccc(S(=O)(=O)N(C)c2ccc(C(=O)O)cc2)cc1	0.9	i	1.1	/	/	104.0	-2.5
CC(=O)Oc1ccc2ccccc2c1C(NC(=O)Cc1ccccc1)c1ccc(Cl)cc1 (configuration not stated)	-10.7	i	0.93	/	/	72.1	-3.0
Cc1cccnc1NC(=O)C1CCN(S(=O)(=O)c2c(C)noc2/C=C/c2ccco2)CC1	-8.7	i	0.96	-30.8	82.5	109.3	-1.1
Cc1ccc(Sc2ccc(NC(=O)c3ccc(S(C)(=O)=O)cc3Cl)cc2)cc1	-1.9	i	0.83	-40.0	84.8	110.1	-2.4
Cc1cc(C(=O)Nc2cccc3ncccc23)no1	12.5	i	1.04	42.9	73.2	100.1	-1.2
COc1ccc(S(=O)(=O)NC(CC(=O)NCc2ccco2)c2ccco2)cc1 (configuration not stated)	-4.7	i	0.9	21.4	86.6	83.7	0.2
Cc1[nH]n(-c2ccccc2)c(=O)c1C=Nc1ccc(S(=O)(=O)NC(N)=O)cc1	/	i	0.92	/	/	102.5	/
CCOC(=O)c1cn[nH]c1NC(=S)Nc1ccccc1	/	i	0.89	/	/	83.9	/
Cc1cc(NC(=O)CSc2ccccn2)no1	5.4	i	1.04	-8.3	145.4	101.5	/
CCOC(=O)c1ccc(NC(=O)c2nc[nH]c2C(=O)NCC(=O)OC(C)(C)C)cc1	/	i	0.85	/	/	96.2	/
COC(=O)c1ccc(C2C(Oc3ccc(OC)cc3)C(=O)N2CCc2ccc(F)cc2)cc1 (configuration not stated)	-1.8	i	1.04	6.5	110.9	105.2	-1.8
COc1ccc(CNc2ccccc2)cc1Br	1.2	i	0.83	46.1	163.0	106.6	-0.3
CCc1cc(C(=O)NNC(=S)Nc2cccc(C)c2)cs1	-0.3	i	0.94	-7.7	69.4	106.2	-0.8
CCn1c(CCCOc2ccc(Cl)cc2Cl)nnc1SCC(=O)Nc1cccc(F)c1	-11.3	i	0.97	/	/	98.5	-1.8
